# Bioassay records as filed in PubChem.
# eIF4H FP inh = inhibitors of RNA binding by human eIF4H; Q15056; eIF4H fluorescence polarization binding assay; inhibition, % at 35 µM; hit rate 0.94% among 290,000; AID 2012;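 active = 50% or more with normal probe brightness, or confirmed in later tests; inconclusive = above 50% with abnormal brightness, or retests that disagree; inactive = below 50% or failed in later tests; about a fifth of its hits are not listed in these tables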;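 also: calls also rest on retests at 20 µM and on dose response follow-up; 0% = protein and probe with vehicle and 100% = probe without protein; strong numbers were not always called active; many hits fall short of the cut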
# CSC inhib = cancer stem cell inhibition. hit rate 1.1% among 300,000. AID 2717. inhibition, % at 7.5 µM. cancer stem cell-like cells viability, luminescence;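 active = mean at 75% or more and at least half the replicates too; inconclusive = mean and replicates disagree; tested in HMLE shEcad cells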;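 also: 0% = median of negative and 100% = median of positive control wells; the first replicate is given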
# MT1-MMP act inh = MT1-MMP (human) activation inhibition. P50281. HT1080 RFP-PRO-GFP cells, GFP/RFP ratio fluorescence, overnight; percent of plate control window, DMSO zero. GFP/RFP ratio change, % at 20 µM. hit rate 0.061% among 360,000. AID 651647;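 active = GFP/RFP ratio change of at least 30% with cell ATP level not reduced by more than half and red fluorescence within 50% of control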; also: strong numbers were not always called active
#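 Test system: HT1080 RFP-PRO-GFP cells; Benchmarks: DMSO and RFP-L50D-GFP cell wells; Timing: cells overnight before dosing, compound overnight, 37 °C, 5% CO2; Compound: one 20 µM compound dose with 1% DMSO; Read-out: GFP/RFP fluorescence ratio.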
# HIV Env fusion = blocks HIV Env-driven cell-cell fusion; HeLa-JRFL Env/CEM21 cell fusion, luciferase; inhibition, % at 12.3 µM; hit rate 1.1% among 360,000;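 active = mean replicate inhibition score of at least 50 and every replicate individually at or above 50; inconclusive = only one of the two criteria met; inactive = mean below 50 and not all replicates reaching 50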;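 also: 0% = plate neutral controls and 100% = maraviroc near 300 nM; one replicate is shown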
# Rce1 inh = blocks yeast Ras-converting enzyme; yeast membranes, quenched prenylated peptide cleavage fluorescence; calls only; Q03530; hit rate 0.27% among 290,000; AID 2563;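 active = fall in fluorescence gain of 50% or more versus controls, with final raw signal at or below 3038400; inconclusive = same 50% fall but final raw signal above 3038400; inactive = fall in fluorescence gain under 50%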;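 also: plate controls were neutral control wells for no effect and wells lacking membranes for full effect; tested at 10 µM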
# Target sequence (Q03530 whole entry, looked up): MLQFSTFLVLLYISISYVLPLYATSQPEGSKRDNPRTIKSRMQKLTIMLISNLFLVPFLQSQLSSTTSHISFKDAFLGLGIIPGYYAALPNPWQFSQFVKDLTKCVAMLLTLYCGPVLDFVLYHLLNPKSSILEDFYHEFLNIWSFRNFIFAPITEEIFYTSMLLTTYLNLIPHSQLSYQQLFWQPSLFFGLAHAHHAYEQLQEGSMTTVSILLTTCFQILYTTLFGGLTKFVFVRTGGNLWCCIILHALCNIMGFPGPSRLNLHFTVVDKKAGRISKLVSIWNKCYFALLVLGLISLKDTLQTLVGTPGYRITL
# Yeast UUG start = modulators of start codon recognition fidelity in yeast; activity score, % at 18.7 µM; hit rate 0.13% among 350,000; S. cerevisiae UUG-firefly luciferase reporter, luminescence/redox ratio;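 active = replicate mean at a twofold rise or more, about +100% in these data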;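 also: firefly luciferase made from a UUG start codon reports start codon fidelity; reporter light over untreated wells divided by growth signal over untreated wells; some hits fall short of that in this replicate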
# PABP polyA inh = PABP-poly(A) binding inhibition | hit rate 1% among 290,000 | PABP-poly(A) RNA binding, fluorescence polarization | P11940 | inhibition, % at 35 µM | AID 2014;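 active = 50% or more with normal probe brightness, or confirmed in later tests; inconclusive = above 50% with abnormal brightness, or retests that disagree; inactive = below 50% or failed in later tests; about a fifth of its hits are not listed in these tables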;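 also: calls also rest on retests at 20 µM and on dose response follow-up; controls were probe without protein and protein plus probe with vehicle; some compounds called inactive have numbers as strong as hits; many hits fall short of the cut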
# eIF4H FP inh retest = recorded beside eIF4H FP inh, whose call it bears; inhibition, %; compound at 20 µM; confirmation average;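 mean of two retest wells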
# PABP polyA inh retest = further read-out of PABP polyA inh, marked with its call; inhibition, %; compound at 20 µM; confirmation repeats;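 mean of two retest wells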
# MT1-MMP act inh RFP = further read-out of MT1-MMP act inh, marked with its call; RFP signal change, %; measured here: RFP expression control read;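 0 = vehicle wells; hits needed this value within 50% of zero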
# Numbers without * were called inactive; i = inactive; ? = inconclusive; / = not tested or not shown. This is a subset; count on the stated rates, not on these rows.
SMILES,eIF4H FP inh,CSC inhib,MT1-MMP act inh,MT1-MMP act inh RFP,HIV Env fusion,Rce1 inh,Yeast UUG start,PABP polyA inh,others
O=CNc1ccccc1Oc1ccccc1,-1.3,-7.1,-7.7,-3.7,/,i,-14.0,-22.0,
COc1ccc(NC(=O)/C(=C/c2cccnc2)NC(=O)c2cccs2)cc1,0.4,-16.8,3.3,3.0,/,i,/,6.1,
CCOC(=O)CSc1nnc(CCCCCN2C(=O)c3cccc4cccc(c34)C2=O)o1,-2.2,7.7,-1.0,2.5,-15.8,/,/,?,
NS(=O)(=O)c1ccc(CNC(=S)NCc2ccc(F)cc2)cc1,-6.2,-6.3,0.8,-4.4,0.5,i,-22.0,6.7,
Cc1ccc(S(=O)(=O)N(CC(=O)Nc2cccc(N(C)S(C)(=O)=O)c2)c2ccc(Cl)c(Cl)c2)cc1,-4.3,/,-11.3,-15.3,-9.7,i,-14.2,-6.8,
O=C(CSc1ncnc2sc3c(c12)CCCC3)c1ccco1,16.6,37.1,-0.9,-5.0,/,i,82.1,15.3,
OCCN1CCN(c2ncnc3nc[nH]c23)CC1,-3.7,-12.6,1.5,5.1,-12.8,i,-19.2,-2.9,
CCC(=O)NC(=S)Nc1ccc(S(=O)(=O)NC(C)C)cc1,5.5,-0.8,1.7,-2.5,/,i,-8.5,16.9,
CN(C(=O)CCN1C(=O)c2ccccc2C1=O)C1CCCCC1,-0.8,-6.4,-2.1,2.6,/,i,-21.5,-8.0,
COc1ccc(S(=O)(=O)N(Cc2ccccc2)Cc2nc(-c3ccccc3)no2)cc1,8.0,40.8,-5.2,-16.2,/,i,-12.3,1.4,

# Overlap with the part before: two compounds, then new ones.
SMILES,eIF4H FP inh,CSC inhib,MT1-MMP act inh,MT1-MMP act inh RFP,HIV Env fusion,Rce1 inh,Yeast UUG start,PABP polyA inh,others
CN(C(=O)CCN1C(=O)c2ccccc2C1=O)C1CCCCC1,-0.8,-6.4,-2.1,2.6,/,i,-21.5,-8.0,
COc1ccc(S(=O)(=O)N(Cc2ccccc2)Cc2nc(-c3ccccc3)no2)cc1,8.0,40.8,-5.2,-16.2,/,i,-12.3,1.4,
COc1ccc(/C=C/C(=O)NC(=S)NCCc2ccc(OC)c(OC)c2)cc1,-9.0,23.4,1.4,-3.5,/,i,-10.7,11.5,
COC(=O)[C@@H]1Cc2c([nH]c3ccccc23)C(C)(C)N1C(=O)CCl,-0.3,10.8,-10.2,-11.1,-10.5,i,7.3,-0.9,
O=C(NCc1ccccc1OC(F)(F)F)C1CCC(=O)N(C2CC2)C1 (configuration not stated),1.7,/,-1.8,0.0,5.0,i,-8.2,1.6,
CCCOc1ccc(NC(=O)CNC(=O)c2cc(OC)cc(OC)c2)cc1OCCC,-5.2,-5.6,4.0,-2.5,1.7,i,-15.4,1.1,
CCC(=O)Nc1nnc(-c2ccc(OC)cc2)o1,-0.1,0.9,-0.1,2.6,10.1,i,-6.1,5.8,
COCC(C)NC(=O)CCc1nnc(C2(c3ccc(Cl)cc3)CCC2)o1 (configuration not stated),-2.8,-4.6,-3.2,2.3,-17.2,i,/,1.0,
CC(C)(C)OC(=O)N[C@@H](Cc1ccccc1)C(=O)NCC1CCC(C(=O)N[C@@H](CCC(N)=O)C(=O)O)CC1 (some centres not stated),5.8,-6.6,/,/,-3.7,i,18.0,0.5,
COc1cc(CNC(=O)Nc2nc(C(N)Cc3ccc(Cl)cc3)cs2)cc(OC)c1OC (configuration not stated),/,/,-0.5,-6.6,25.8,/,-10.8,/,
CC(C)C1(CCNC(=O)c2cccs2)CCOC(C)(C)C1 (configuration not stated),-11.2,-5.0,2.7,3.1,-7.3,i,-19.4,-4.2,
COc1ccccc1CCC(=O)Nc1cccc(S(=O)(=O)N2CCCCCC2)c1,/,-8.4,3.6,1.3,6.2,i,/,/,
Cc1cccc(OCC(=O)N2CCOCC2)c1,8.3*,-14.2,3.4,6.9,6.3,i,-25.6,99.4*,eIF4H FP inh retest=96.5*;PABP polyA inh retest=98.6*
COc1ccccc1C(=O)NCC(=O)OCC(=O)NNC(=O)c1ccc(Br)cc1,/,-1.3,-2.3,-0.5,17.8,/,-2.7,/,
CN1CCN(c2nc3ccccc3nc2C(C#N)S(=O)(=O)c2ccccc2)CC1 (configuration not stated),?,-17.6,/,/,16.8,i,/,?,
CCOC(=O)Cc1csc(NC(=O)Nc2ccc(F)cc2)n1,4.5,6.2,1.0,-12.5,-6.1,i,-9.7,4.3,
CCN(CC)c1ccc(-c2nn3c(-c4ccccc4OC)nnc3s2)cc1,-2.3,93.4*,16.4,-1.0,/,i,-19.9,-10.8,
CC1(C)CC2CC(C)(CN2C(=O)c2cccs2)C1 (configuration not stated),4.3,12.0,-6.4,-0.4,-80.6,i,-4.1,-7.8,
COc1ccc(Cn2c(O)c(C=Nc3ccccc3C(=O)O)c3ccccc3c2=O)cc1,7.2,21.3,0.5,-2.7,16.4,i,-1.1,17.2,
Cc1cc(S(=O)(=O)N2CCC3(CC2)OCCO3)c(C)cc1Cl,-4.0,-8.2,0.6,2.2,-6.7,i,-9.8,6.7,
O=C(Cn1ccc([N+](=O)[O-])n1)NCc1cccs1,0.7,-15.0,0.5,7.1,/,i,-16.6,2.4,
CCNC(=S)NNC(=O)C(c1ccccc1)c1ccccc1,6.7,-5.5,-7.7,-1.3,0.4,/,-22.6,-2.6,
Cc1ccc(CCNC(=O)CN2C(=O)CSc3ccc(S(=O)(=O)N4CCOCC4)cc32)cc1,/,/,1.6,2.6,-11.2,/,7.2,/,
Cc1cc(C)nc(/N=C(\N)Nc2ccc(S(=O)(=O)Nc3nccc(C)n3)cc2)n1,8.9,-8.3,-1.6,0.9,12.4,i,7.9,-1.5,
NNc1ncnc2sc3c(c12)CCC3,-7.9,0.7,-1.8,1.7,-4.5,i,/,1.6,
CNC(=S)N/N=C/c1cc(Br)c(OCc2ccncc2)c(OC)c1,7.8,6.1,1.9,-3.1,10.4,i,-7.6,-10.3,
Cc1ccc(NC(=O)Cc2cn3ccsc3n2)nc1,-2.1,-11.5,-2.9,2.6,/,i,-6.7,-2.7,
COc1ccc(NS(=O)(=O)c2cc(NC(=O)[C@@H](NC(=O)c3ccccc3)C(C)C)ccc2C)cc1,-9.4,54.7,-3.3,-17.7,-115.1,i,-1.7,-2.7,
CCOc1ccc(S(=O)(=O)/N=C(/Nc2ccc(C)c(S(=O)(=O)N3CCOCC3)c2)c2ccccc2)cc1,/,2.2,2.0,-5.2,/,/,2.5,/,
O=C(CN1C(=O)c2ccccc2S1(=O)=O)NCCSCc1ccco1,-9.4,/,1.7,-0.5,-74.4,i,7.6,-1.7,
Cc1ccc(S(=O)(=O)N2CCCCC2)cc1NC(=O)c1cccs1,/,-11.6,4.2,1.0,-85.6,/,/,/,
CC(C)(C)OC(=O)N1CCC(C(=O)N[C@@H](Cc2c[nH]c3ccccc23)C(=O)O)CC1,-2.3,-3.2,-2.3,6.7,-9.1,i,-6.4,3.8,
CCOC(=O)N1CCN(C(=O)c2ccc3nc4cc(Cl)ccc4c(=O)n3c2)CC1,/,/,1.4,2.9,/,i,-6.3,/,
Cc1ccc2c(c1)N(CC(=O)NCCc1c[nH]c3ccccc13)C(=O)CO2,-1.3,-8.5,-4.1,3.7,12.9,i,-4.1,10.3,
CC1CC(C)CN(C(=O)COc2ccc([N+](=O)[O-])cc2Cl)C1 (configuration not stated),1.4,-6.6,-3.0,-5.1,-14.3,i,/,-2.8,
Cc1[nH]c(C)c(S(=O)(=O)N2CCN(c3cccc(Cl)c3)CC2)c1C(=O)N1CCCCC1,-13.3,20.9,7.5,4.0,6.6,i,12.2,5.4,
Cc1ccc(C(=O)C(C(=O)/C=C/c2ccccc2)=C2SCCCS2)cc1,-6.5,?,-16.8,-27.4,/,i,-10.9,1.6,
CC(OC(=O)c1cccc(S(=O)(=O)N2CCCC2)c1)C(=O)c1ccccc1 (configuration not stated),-2.9,/,0.5,-0.8,/,i,-7.0,-21.7,
COc1cccc(CNC(=O)Cc2ccc(NC(=O)C3=C(C)OCCS3)cc2)c1,26.9,-11.8,/,/,-26.0,i,-18.5,20.3,
COc1cc(OC)cc(-c2noc(-c3csc([C@@H]4C[C@H](O)[C@@H](CO)O4)n3)n2)c1,/,/,5.8,2.8,-26.7,/,-2.3,/,
Cc1ccc(N2C(=O)CC(N3CCN/C3=C3\CC/C(=C\c4ccccc4)C3=O)C2=O)cc1 (configuration not stated),-1.3,-10.2,0.0,2.3,10.2,i,-1.2,-3.2,
COc1cc(C(=O)Nc2ccccc2C(=O)NCc2cccnc2)cc(OC)c1OC,3.9,/,4.8,6.8,?,i,-15.3,2.8,

# By substructure, those above with an aryl thioether with sulfur outside any ring
SMILES,eIF4H FP inh,CSC inhib,MT1-MMP act inh,MT1-MMP act inh RFP,HIV Env fusion,Rce1 inh,Yeast UUG start,PABP polyA inh,others
CCOC(=O)CSc1nnc(CCCCCN2C(=O)c3cccc4cccc(c34)C2=O)o1,-2.2,7.7,-1.0,2.5,-15.8,/,/,?,
O=C(CSc1ncnc2sc3c(c12)CCCC3)c1ccco1,16.6,37.1,-0.9,-5.0,/,i,82.1,15.3,

# Retrieved by structure from the list above:
SMILES,eIF4H FP inh,CSC inhib,MT1-MMP act inh,MT1-MMP act inh RFP,HIV Env fusion,Rce1 inh,Yeast UUG start,PABP polyA inh,others
COc1cccc(CNC(=O)Cc2ccc(NC(=O)C3=C(C)OCCS3)cc2)c1,26.9,-11.8,/,/,-26.0,i,-18.5,20.3,
COc1cc(OC)cc(-c2noc(-c3csc([C@@H]4C[C@H](O)[C@@H](CO)O4)n3)n2)c1,/,/,5.8,2.8,-26.7,/,-2.3,/,
CC(OC(=O)c1cccc(S(=O)(=O)N2CCCC2)c1)C(=O)c1ccccc1 (configuration not stated),-2.9,/,0.5,-0.8,/,i,-7.0,-21.7,
Cc1ccc2c(c1)N(CC(=O)NCCc1c[nH]c3ccccc13)C(=O)CO2,-1.3,-8.5,-4.1,3.7,12.9,i,-4.1,10.3,

# (more compounds)
SMILES,eIF4H FP inh,CSC inhib,MT1-MMP act inh,MT1-MMP act inh RFP,HIV Env fusion,Rce1 inh,Yeast UUG start,PABP polyA inh,others
COc1ccccc1OCCNC(=O)C(CCSC)NC(=O)c1ccccc1Cl (configuration not stated),/,4.6,2.1,-0.7,-15.1,i,-6.8,/,
CC(NC(=O)c1ccccc1)C(=O)N/N=C/c1cccc([N+](=O)[O-])c1 (configuration not stated),0.8,-5.5,1.1,0.9,19.0,i,/,-4.4,
O=C(NC(=S)NCC1CCCO1)c1ccccc1F (configuration not stated),1.2,-7.1,-0.5,-0.5,-20.2,i,/,0.9,
CC(=O)Nc1cc(-c2cccc(CO)c2)cn2c(-c3ccc(C(C)=O)cc3)cnc12,/,/,0.4,1.3,-15.3,/,1.3,/,
COc1cccc(OC)c1C(=O)OCC(=O)NC1CCCCCC1,/,/,-4.1,0.5,4.5,/,-1.3,/,
Cc1ccc(NC(=O)CCCNC(=O)c2ccc(Cl)cc2)cc1S(=O)(=O)N1CCOCC1,/,/,2.2,-0.7,8.2,/,-7.1,/,
